ID4 SMM – binders of human ID4 protein | P47928 | AID 624137 | small molecule microarray, Flag-ID4 binding, fluorescence F/B | calls only | 31,000 compounds, 1.2% hits;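 active = spot signal over background at p below 0.07 in all four prints; compounds were printed on slides so no solution concentration is given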;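 note: a binder raises fluorescence above local background on the spot; about 2 pmol printed per array spot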
Target sequence (P47928 whole entry, looked up): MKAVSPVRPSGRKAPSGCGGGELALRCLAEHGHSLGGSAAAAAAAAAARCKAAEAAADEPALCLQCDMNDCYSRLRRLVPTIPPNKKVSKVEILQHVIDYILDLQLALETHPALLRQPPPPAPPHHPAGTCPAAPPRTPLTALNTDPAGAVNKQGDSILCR
Calls only; i = inactive. An excerpt; rates above refer to the full screens.

Structure	ID4 SMM
C[C@H]1CN([C@@H](C)CO)C(=O)c2cc(-c3ccccc3)cnc2O[C@@H]1CN(C)Cc1ccc(C(=O)O)cc1	i
C[C@H]1CN([C@@H](C)CO)C(=O)c2cc(C3=CCCCC3)cnc2O[C@@H]1CN(C)Cc1cccnc1	i
O=C(Cn1ccc([N+](=O)[O-])n1)NCc1cccnc1	i
CCOC(=O)c1c(C)n(OCc2ccccc2)c2ccc3nonc3c12	i
CCC(=O)N(C)C[C@@H]1Oc2ncc(C3=CCCC3)cc2C(=O)N([C@@H](C)CO)C[C@H]1C	i
Cc1ccc(OCC(=O)NC(=S)Nc2cc(-c3nc4ncccc4o3)ccc2C)cc1	i
COc1ccc(NC(=O)C23CC4CC(C2)CC(C(=O)Nc2ccc(OC)cc2OC)(C4)C3)c(OC)c1	i
O=C(CSc1nc(-c2ccccc2)cc(C(F)(F)F)n1)c1ccc(Br)cc1	i
Cc1ccccc1NS(=O)(=O)c1ccc(NC(=O)c2nc3ncccn3n2)cc1	i
Cc1ccc(CN2C(=O)C(O)(CC(=O)c3c(C)coc3C)c3cc(Cl)ccc32)cc1 (centres undefined)	i
C[C@@H](NC(=O)C[C@H]1CC[C@@H](NC(=O)CN2CCOCC2)[C@@H](CO)O1)c1ccccc1	i
COc1ccc(N(Cc2cc3ccccc3[nH]c2=O)C(=O)c2cccc(OC)c2)cc1	i
COc1ccc(OC)c(NC(=O)COc2cc(C)c(Br)cc2C)c1	i
COc1cc(CCC(O)CC(=O)CCc2ccc(O)cc2)ccc1O (centres undefined)	i
CN(C)c1ccc2c(c1)[C@@H]1C[C@@H](CC(=O)NCCc3ccccc3)O[C@@H](CO)[C@@H]1O2	i
C/C=C/c1cnc2c(c1)C(=O)N([C@H](C)CO)C[C@@H](C)[C@@H](CN(C)C(=O)Nc1ccc(OC)cc1)O2	i
C[C@H](CO)N1C[C@H](C)[C@@H](CN(C)C(=O)C2CC2)Oc2cc(-c3ccc(C#N)cc3)ccc2S1(=O)=O	i
Nc1nc(SCC(=O)c2ccccc2)nc2sc3c(c12)CCC3	i
C[C@H](CO)N1C[C@H](C)[C@@H](CN(C)C)Oc2ccc(NC(=O)C3CCCCC3)cc2CC1=O	i
Cc1cccc(NC(=O)C(Cc2ccccc2)N2C(=O)c3cc(Cl)c(Cl)cc3C2=O)c1 (centres undefined)	i
C[C@H]1CN([C@@H](C)CO)C(=O)c2cc(-c3ccccc3)cnc2O[C@@H]1CN(C)Cc1ccccn1	i
CCn1c(SCC(=O)Nc2cc(Cl)c(Cl)cc2Cl)nnc1-c1cccc(C)c1	i
Cc1ccc(S(=O)(=O)N(C)CC(=O)Nc2cccnc2)cc1	i
COc1ccc(-c2cnc3c(c2)C(=O)N([C@@H](C)CO)C[C@H](C)[C@H](CN(C)Cc2ccccc2)O3)cc1	i
COC(=O)c1ccccc1NC(=O)CSc1nnnn1-c1ccc(C)cc1C	i
C[C@H]1CN([C@@H](C)CO)S(=O)(=O)c2ccc(C#Cc3ccccc3)cc2O[C@H]1CN(C)C	i
COc1ccc(C)cc1NC(=O)CN(c1ccc(Br)c(C)c1)S(C)(=O)=O	i
O=C(CSc1nnc(-c2ccco2)n1-c1ccccc1)c1ccc2c(c1)OCCO2	i
O=C(COc1ccc(N2CC(C(=O)O)CC2=O)cc1)Nc1cccc(C(F)(F)F)c1 (centres undefined)	i
O=C(N[C@H]1CC[C@@H](CC(=O)N2CCc3ccccc3C2)O[C@H]1CO)C1CCC1	i
O=C1c2ccccc2[C@@]2(Cc3ccccc3N(CCN3CCOCC3)C2=O)[C@H](c2ccc(CO)cc2)N1Cc1ccccc1Cl	i
Cc1ccc(Nc2nc(Nc3ccc(C)cc3)nc(Sc3ncn[nH]3)n2)cc1	i
COc1ccccc1C#Cc1ccc([C@H]2[C@@H](CO)N(C(=O)C3CC3)[C@H]2C#N)cc1	i
COc1ccccc1NC(=O)N(C)C[C@H]1OCc2ccccc2-c2ccccc2C(=O)N([C@@H](C)CO)C[C@H]1C	i
C[C@@H]1CN([C@@H](C)CO)C(=O)c2cc(C3=CCCC3)cnc2O[C@@H]1CN(C)C(=O)C1CCC1	i
Cc1ccc(NC(=O)COc2ccccc2)c(NC(=O)c2ccc(Cl)cc2)c1	i
O=C(CSc1nnc(-c2cccs2)n1-c1ccccc1Cl)Nc1cccc(C(=O)O)c1	i
C/C=C/c1cnc2c(c1)C(=O)N([C@H](C)CO)C[C@H](C)[C@H](CN(C)C(=O)C1CCCCC1)O2	i
C=CCN1C(=O)[C@@]2(O[C@@H](CCn3cc(CCO)nn3)[C@H]([Si](C)(C)c3ccc(OC)cc3)[C@H]2C)c2cc(NC(=O)c3ccc(OC)cc3)ccc21	i
CCCC#Cc1cnc2c(c1)C(=O)N([C@H](C)CO)C[C@H](C)[C@@H](CN(C)C(=O)C1CCOCC1)O2	i
COc1ccccc1CNC(=O)C[C@H]1C[C@H]2c3cc(NC(=O)CC4CC4)ccc3O[C@H]2[C@H](CO)O1	i
COc1cccc(-c2cnc3c(c2)C(=O)N([C@@H](C)CO)C[C@H](C)[C@@H](CN(C)CC2CCCC2)O3)c1	i
COCCOC(=O)N1C(=O)[C@@]2(c3cc(C#CC4(O)CCCCCC4)ccc31)[C@H](c1ccc(OCCO)cc1)N1[C@H](c3ccccc3)[C@H](c3ccccc3)OC(=O)[C@H]1[C@@H]2C(N)=O	i
COc1ccc(OCC(=O)Nc2cccc3ncccc23)cc1	i
CN(C(=O)CSc1nnc(-c2ccc([N+](=O)[O-])cc2)n1C)c1ccccc1	i
C[C@H]1CN([C@@H](C)CO)C(=O)c2cc(-c3cccc(C#N)c3)cnc2O[C@H]1CN(C)Cc1ccccc1	i
CSc1cccc(NC(=O)C(C)NS(=O)(=O)c2ccc(F)cc2)c1 (centres undefined)	i
C[C@H](CO)N1C[C@H](C)[C@H](CN(C)C(=O)c2ccc(F)cc2)Oc2ncc(C3=CCCC3)cc2C1=O	i
CN(Cc1nc(-c2ccncc2)no1)S(=O)(=O)c1ccc(Cl)cc1	i
O=C(CSc1nc2sc3c(c2c(=O)[nH]1)CCCC3)Nc1ccc(Cl)cc1	i
CO[C@@H](CN(C)Cc1nccs1)[C@H](C)CN([C@H](C)CO)S(=O)(=O)c1ccc(C)cc1	i
COC(=O)c1cccc(NC(=O)CSc2nc(C)c3c(n2)CCCC3)c1	i
CN(Cc1cc2ccccc2[nH]c1=O)S(=O)(=O)c1ccccc1	i
Cc1ccc(C)c(NC(=O)C(Cc2ccccc2)N2C(=O)c3ccccc3C2=O)c1 (centres undefined)	i
CC(=O)OCCSc1nc(N(C)C)nc(N(C)C)n1	i
CN(c1cccc(NC(=O)c2ccc(Cl)c(S(=O)(=O)Nc3ccccc3)c2)c1)S(C)(=O)=O	i

Further structures:
Structure	ID4 SMM
C[C@@H]1CN([C@H](C)CO)C(=O)c2cc(C3=CCCCC3)cnc2O[C@H]1CN(C)C(=O)c1ccccc1	i
C[C@H]1CN([C@@H](C)CO)C(=O)c2cc(-c3ccc(F)cc3)cnc2O[C@@H]1CN(C)C(=O)Nc1ccc(F)cc1	i
COc1ccccc1-n1c(SCC(=O)N(c2ccccc2)c2ccccc2)nc2ccccc2c1=O	i
COCC#Cc1ccc2c(c1)O[C@@H](CN(C)Cc1cncnc1)[C@H](C)CN([C@H](C)CO)S2(=O)=O	i
COc1cccc(C#Cc2cnc3c(c2)C(=O)N([C@@H](C)CO)C[C@H](C)[C@H](CN(C)C)O3)c1	i
Cc1ccc(OC(=O)N(C)C[C@@H]2OCc3ccccc3-c3ccccc3C(=O)N([C@@H](C)CO)C[C@H]2C)cc1	i
O=C(C[C@H]1CC[C@H](NS(=O)(=O)c2ccccc2)[C@@H](CO)O1)NCCN1CCCCC1	i
C[C@@H]1CN([C@@H](C)CO)C(=O)c2cc(C#CC3(O)CCCC3)cnc2O[C@@H]1CN(C)CC1CC1	i
COCC#Cc1ccc2c(c1)O[C@H](CN(C)C(=O)c1ccccc1F)[C@@H](C)CN([C@@H](C)CO)S2(=O)=O	i
O=C(Cn1cc(C(=O)c2cccs2)c2ccccc21)NCC1CCCO1 (centres undefined)	i
COc1ccc(C(=O)NC(c2c(C)[nH]n(-c3ccccc3)c2=O)(C(F)(F)F)C(F)(F)F)cc1	i
C[C@H]1CN([C@@H](C)CO)C(=O)Cc2cc(NC(=O)CCC(F)(F)F)ccc2O[C@H]1CN(C)CC1CC1	i
CSc1cccc(NC(=O)CSc2nnc(-c3cccc(C)c3)n2C)c1	i
C[C@@H]1CN([C@@H](C)CO)C(=O)Cc2cc(NC(=O)Cc3ccccc3)ccc2O[C@H]1CN(C)C	i
C[C@@H]1CN([C@H](C)CO)C(=O)c2cc(Br)cnc2O[C@H]1CN(C)Cc1ccccn1	i
C[C@H](CO)N1C[C@H](C)[C@@H](CN(C)C(=O)CN(C)C)Oc2ncc(C3=CCCC3)cc2C1=O	i

Taken from above for reference:
Structure	ID4 SMM
COc1ccc(C(=O)NC(c2c(C)[nH]n(-c3ccccc3)c2=O)(C(F)(F)F)C(F)(F)F)cc1	i
C[C@H]1CN([C@@H](C)CO)C(=O)Cc2cc(NC(=O)CCC(F)(F)F)ccc2O[C@H]1CN(C)CC1CC1	i
CSc1cccc(NC(=O)CSc2nnc(-c3cccc(C)c3)n2C)c1	i
C[C@@H]1CN([C@@H](C)CO)C(=O)Cc2cc(NC(=O)Cc3ccccc3)ccc2O[C@H]1CN(C)C	i
C[C@@H]1CN([C@H](C)CO)C(=O)c2cc(Br)cnc2O[C@H]1CN(C)Cc1ccccn1	i
C[C@H](CO)N1C[C@H](C)[C@@H](CN(C)C(=O)CN(C)C)Oc2ncc(C3=CCCC3)cc2C1=O	i

Additional records:
Structure	ID4 SMM
NS(=O)(=O)c1ccc(NC(=O)CSc2nnc(-c3ccccc3Cl)n2-c2ccccc2)cc1	i
CNC[C@H]1Oc2ncc(-c3ccc(OC)cc3)cc2C(=O)N([C@@H](C)CO)C[C@H]1C	i
O=C(CSc1nnnn1-c1ccccc1)Nc1cc(Cl)ccc1O	i
COc1cccc(CNC(=O)C[C@@H]2CC[C@@H](NC(=O)C3CCC3)[C@@H](CO)O2)c1	i
Cc1ccc(-c2nc3cc(NC(=O)COc4ccc([N+](=O)[O-])cc4)ccc3o2)cc1C	i
COc1cccc(NC(=O)N[C@@H]2C=C[C@H](CC(=O)N3CCOCC3)O[C@H]2CO)c1	i
CCC(=O)N(C)C[C@@H]1Oc2ncc(-c3ccc(F)cc3)cc2C(=O)N([C@@H](C)CO)C[C@@H]1C	i
CC(=O)O[C@@H]1CC[C@@]2(C)C(C[C@@H](OC(C)=O)[C@@]3(C)C4=CC(=O)O[C@@H](c5ccoc5)[C@]4(C)CCC23)C1(C)C (some centres undefined)	i
C[C@H]1CN([C@@H](C)CO)C(=O)Cc2cc(NC(=O)C3CC3)ccc2O[C@H]1CN(C)CC1CC1	i
CN1CCN(CCn2c(-c3ccc(Br)cc3)cn3c4ccccc4nc23)CC1	i
C[C@H](CO)N1C[C@H](C)[C@@H](CN(C)C(=O)c2ccncc2)OCc2ccccc2-c2ccccc2C1=O	i
O=c1ncn(Cc2ccccn2)cc1-c1ccccc1	i
COc1ccc(C(=O)NCCc2c[nH]c3ccccc23)cc1[N+](=O)[O-]	i
Cc1cc(C)n2nc(SCC(=O)c3cccs3)nc2n1	i
CN(C)c1ccc2c(c1)[C@H]1C[C@H](CC(=O)NCc3cc(F)ccc3F)O[C@@H](CO)[C@H]1O2	i
C[C@H]1CN([C@@H](C)CO)C(=O)c2cc(C#Cc3cccc(F)c3)cnc2O[C@H]1CN(C)Cc1ccccn1	i
Cc1cc2c(=O)n(Cc3ccco3)c(SCC(=O)N3CCCc4ccccc43)nc2s1	i
C[C@H]1CN([C@@H](C)CO)C(=O)c2cc(Br)cnc2O[C@H]1CN(C)Cc1ccccn1	i
C[C@@H]1CN([C@@H](C)CO)C(=O)c2cc(C#Cc3ccccc3)cnc2O[C@@H]1CN(C)C(=O)c1ccccn1	i
CCOc1ccc(NC(=O)CC2NCCNC2=O)cc1 (centres undefined)	i
C=CCn1c(Sc2ncnc3c2cnn3-c2ccccc2)nnc1-c1ccncc1	i
C[C@H]1CN([C@@H](C)CO)C(=O)c2cc(-c3cccc(F)c3)cnc2O[C@H]1CN(C)C	i
CCCc1cc(=O)[nH]c(=S)[nH]1	i
CC1Nc2ccc(Cl)cc2S(=O)(=O)N1 (centres undefined)	i
O=C(C[C@H]1C[C@@H]2c3cc(NS(=O)(=O)c4ccc(F)cc4)ccc3O[C@@H]2[C@@H](CO)O1)N1CCOCC1	i
CCn1c(SCC(=O)Nc2ccccc2)nc2ccc(I)cc2c1=O	i
O=C(Nc1ccc2c(c1)[C@H]1C[C@H](CC(=O)N3CCc4ccccc4C3)O[C@@H](CO)[C@H]1O2)C1CCC1	i
O=C(C[C@@H]1CC[C@H](NC(=O)C2CC2)[C@H](CO)O1)NCc1ccccc1Cl	i
Cn1c(NCc2ccco2)nc2c1c(=O)n(Cc1ccc(Cl)cc1)c(=O)n2C	i
CCOC(=O)c1ccc(NC(=O)CN2C(=O)CNC2=O)cc1	i
O=C(C[C@H]1C=C[C@H](NC(=O)CN2CCOCC2)[C@H](CO)O1)NCc1cccc(F)c1	i
C[C@H](NC(=O)C[C@H]1CC[C@@H](NC(=O)c2cccnc2)[C@@H](CO)O1)c1ccccc1	i
COc1ccccc1OCC(=O)Nc1sc2c(c1C#N)CCCCC2	i
COC(=O)c1c(NC(=O)CC2Sc3ccccc3NC2=O)sc2c1CCC(C)C2 (centres undefined)	i
C[C@H]1CN([C@@H](C)CO)C(=O)c2cc(/C=C/c3ccccc3)cnc2O[C@@H]1CN(C)C(=O)c1ccc(F)cc1	i

Screens from PubChem.
